# Compound activity: PubChem BioAssay, Fisher Drug Discovery Resource Center
# NPYLR7 agonist: activates Aedes aegypti NPYLR7 receptor. activation, % at 10 µM. HEK293T NPYLR7/Galpha15, GCaMP6s calcium fluorescence. actives 0.15% (n = 270,000). AID 1259423; in the data active means activation above about 40%;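 further: 0% = vehicle and 100% = reference agonist at the receptor; some compounds past the cut are filed as inactive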
# NPYLR7 agonist max-min: recorded beside NPYLR7 agonist, whose call it bears; activation, %; measured here: Max-Min RFU normalised activation; some inactives read as strong as hits;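 span of the calcium signal over five minutes; 0% = vehicle and 100% = native peptide agonist; compound fluorescence can raise it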
# An asterisk follows results filed as active; & = joins results of further samples. A portion of the library (hit frequency here may not be typical).
SMILES,NPYLR7 agonist,NPYLR7 agonist max-min
CCOCCCN(CC(=O)N(CCc1ccc(OC)c(OC)c1)Cc1ccc(C)s1)C(=O)Nc1ccccc1C(F)(F)F,-1,4
O=C(c1cccnc1-c1cccc(CN2CCOCC2)c1)N1CCCC1,0,2
Clc1ccc2nnc(-c3ccc(Br)cc3)n2n1,2,-1
O=C(N[C@@H]1CCCCC1NC(=O)C1CCCN(C(=O)c2ccc(C(F)(F)F)cc2)C1)c1ccc(F)cc1 (stereo partly drawn),-2,-2
CCOCCN1N=C(c2ccc(F)cc2)Cn2c1nc1c2c(=O)n(C)c(=O)n1C,2,4
CC1(C)CN(C(=O)CCc2ccccc2)CC(=O)N(CC(O)C(F)(F)F)C1 (stereo not drawn),9,24
N#Cc1cccc(NS(=O)(=O)c2ccccc2F)c1,-2,-6
O=S(=O)(CCc1ccccn1)NC1CCC(C(F)(F)F)CC1 (stereo not drawn),6,5
O=C(Nc1ccc(Cl)cc1Cl)N1CC(=O)N2CCc3c(F)cccc3C2C1 (stereo not drawn),-8,-9
O=C(CCn1cnc2c(Cl)cc(Cl)cc2c1=O)Nc1ccccc1,-6,-6
CCOC(=O)c1cc(-c2ccc(N3CCN(C(=O)[C@@H]4C[C@H]4c4ccccc4)CC3)cc2)n(-c2ccccc2C)n1,21,10
Fc1ccc(C2c3nc[nH]c3CCN2C(=S)Nc2cccc(F)c2)cc1 (stereo not drawn),0,39
Cc1cccc2c(N=Nc3nncc4ccccc34)c(O)[nH]c12,-6,-7
O=C(NC1CCC(c2ccccc2)CC1)c1n[nH]c2ccccc12 (stereo not drawn),4,1
O=C(CCc1cc2ccccc2o1)NC12CC3CC(CC(C3)C1)C2,5,6
COc1cccc(CN2CCCn3cccc3C2c2cc(F)ccc2F)c1OC (stereo not drawn),2,14
CSc1cccc(NC(=O)N2CCCC2c2ccccn2)c1 (stereo not drawn),19,15
COc1ccc(S(=O)(=O)CCC(=O)N(CCN(C)C)c2nc3c(C)c(Cl)ccc3s2)cc1,3,-1
O=C(/C=C/c1ccccc1)N1CC(=O)N2CCc3ccccc3C2C1 (stereo not drawn),-11,-1
C=C(C)COc1ccccc1C(=O)N1CCC(Nc2ncccn2)CC1,1,-2
CCN(Cc1nccn1C)C(=O)c1ccc(NCC2CCCCO2)nc1 (stereo not drawn),5,4
Cc1ccsc1-c1nc(CN2CCCC2c2ccc(F)cc2)c(C)o1 (stereo not drawn),-8,-13
COCCN1C(=O)C(=Cc2c(N(C)CCO)nc3ccccn3c2=O)SC1=S,27,25
C=CCOC(CN1CCN(C(=O)Nc2cc(OC)ccc2OC)CC1)c1cccc(OC)c1 (stereo not drawn),-4,1
CCOc1cc(NC(=O)C(C)(C)C)c(OCC)cc1NC(=O)c1ccccc1,-3,1
Cc1cc(=O)c(C(=O)O)nn1-c1cccc(Cl)c1,-1,-3
Cn1c(CSc2nc3cc(Cl)ccc3o2)nc2c1c(=O)[nH]c(=O)n2C,5,1
Cn1c(C(=O)NC2Cc3ccccc3C2)cc(=O)n(C)c1=O,3,4
C(=N/Nc1nc(N2CCOCC2)nc(N2CCOCC2)n1)/c1ccncc1,-2,-8
COCC(=O)N(C)C(C)C1=CCCN(Cc2csc(C)n2)C1 (stereo not drawn),-1,-4
CS(=O)(=O)CCn1[nH]c(-c2ccc3c(c2)CCC3)nc1=S,-1,28
Cc1cc(C)c2c(c1)C(C)(C)CC(=O)O2,2,0
C=CCN(CC(=O)N1CCc2sccc2C1COc1ccc(C)cc1C)C(=O)c1cccs1 (stereo not drawn),-3,1
CC1CCCN(c2cc(C(=O)NC3CCc4ccccc43)c3ccccc3n2)C1 (stereo not drawn),33,24
COc1ccccc1CN(Cc1ccc(F)cc1)CC(O)COc1ccccc1C (stereo not drawn),19,14
O=C(CSc1ccc2nnc(CCNS(=O)(=O)c3ccccc3)n2n1)NCc1ccccc1,3,-8
Nc1nc2ccc(S(=O)(=O)c3ccc4nc(N)sc4c3)cc2s1,-4,-6
CCCc1nn(-c2ccc(C)cc2)c(CC)c1C(=O)NCC1CCCO1 (stereo not drawn),21,28
CN(CC(N)=O)C(=O)CCOc1ccc(Br)cc1,1,14
Cc1ccc(-c2nc(Cn3ccn4nc(-c5ccc(Cl)cc5)cc4c3=O)c(C)o2)cc1,7,6
COc1ccccc1OCCN1CCC(C(=O)NC(C)c2ccccc2)CC1 (stereo not drawn),8,-5
O=c1c2cnc3ncnn3c2ccn1-c1ncccc1O,4,7
COc1cccc(-c2cnnc(N3CCCCC3CO)n2)c1 (stereo not drawn),-1,-3
CC(C)c1ccc(C2=NC(C)(CC(=O)N3CCN(C)CC3)ON2C)cc1 (stereo not drawn),7,3
CCn1c(SCC(=O)NC(C)C)nnc1-c1ccncc1,5,2
Cc1ccc2c(c1)CCN1C(=O)CN(C(=O)c3cnc4c(c(C)nn4C)c3Cl)CC21 (stereo not drawn),-4,1
CC(C)N(CCC#N)S(=O)(=O)c1ccc(-c2ccc([N+](=O)[O-])cc2)cc1,1,-1
CC(=O)Nc1nc2c(C)cc([N+](=O)[O-])cc2s1,-5,-7
COc1ccc2sc(N(Cc3ccco3)C(=O)c3cc(C)nn3C)nc2c1,7,3
CC(C)N(CCNC(=O)c1ccc(NC(=O)c2cccs2)cc1)C(C)C,11,5
CC1(C(=O)NCCc2ccccn2)CCN1Cc1ccc(-c2ccccn2)cc1 (stereo not drawn),8,5
CC(C#N)CN(C)C(=O)c1cc(S(=O)(=O)N2CCSCC2)c[nH]1 (stereo not drawn),5,4
CCOC(=O)[C@@H]1C[C@@H]1CN1CCn2nc(-c3nc4ccccc4n3C)cc2C1,0&-1,-4&-4
CCOc1ccc(CN(C)C(C)C(=O)N2CCNC2=O)cc1 (stereo not drawn),9,4
COCc1nc(NCCc2nc3ccccc3[nH]2)c2cnn(C)c2n1,6,2
Cc1ccc2nc(CN3CCCC4(CNC(=O)O4)C3)[nH]c2c1 (stereo not drawn),-8,-11
Cc1csc(NC(=O)CSc2nc(=O)n(Cc3ccco3)c3c2CCC3)n1,-2,-2
COc1ccc(-c2ncc(CN3CCN(CC(C)C)C(CCO)C3)cn2)cc1 (stereo not drawn),5,2
Cc1ccc(C)c(S(=O)(=O)Nc2cc(-c3ccco3)nn2C2CCS(=O)(=O)C2)c1 (stereo not drawn),0,-3
COc1cc(CCC(=O)Nc2nnc(CC(C)C)s2)cc(OC)c1,12,8

# As entered above.
# Reading for CC(C)N(CCNC(=O)c1ccc(NC(=O)c2cccs2)cc1)C(C)C under NPYLR7 agonist max-min: 5
# Reading for C=C(C)COc1ccccc1C(=O)N1CCC(Nc2ncccn2)CC1 under NPYLR7 agonist max-min: -2
# Reading for CC(C#N)CN(C)C(=O)c1cc(S(=O)(=O)N2CCSCC2)c[nH]1 (stereo not drawn) under NPYLR7 agonist: 5
# Reading for CC(C)c1ccc(C2=NC(C)(CC(=O)N3CCN(C)CC3)ON2C)cc1 (stereo not drawn) under NPYLR7 agonist max-min: 3
# Reading for Cc1cc(C)c2c(c1)C(C)(C)CC(=O)O2 under NPYLR7 agonist max-min: 0
# Reading for O=C(CCn1cnc2c(Cl)cc(Cl)cc2c1=O)Nc1ccccc1 under NPYLR7 agonist: -6

# (more compounds)
SMILES,NPYLR7 agonist,NPYLR7 agonist max-min
CC1=C(C(=O)N(C)C)C(c2ccc(C(C)(C)C)cc2)NC(=O)N1 (stereo not drawn),2,1
Cc1nn(Cc2ccccc2)c(C)c1CNC1CCCCC1,3,3
COc1cc(C)ccc1S(=O)(=O)N1CCN2C(=O)CN(C)C(=O)C2C1 (stereo not drawn),11,8
CCOC(=O)C1=C(C)N=C2SCC(=O)N2C1c1cccs1 (stereo not drawn),14,9
O=C(NCc1ccccn1)C1COC2(CCCCC2)N1C(=O)c1ccc(F)cc1F (stereo not drawn),-5,2
O=C(NCCc1csc(-c2ncccn2)n1)c1cn2c(n1)CNCC2,-3,-8
O=S(=O)(Oc1cccc2cccnc12)c1ccc2ccccc2c1,-2,-4
CCNC(=O)[C@@]1(OCc2cccc(Cl)c2)CC(OCc2ccc(C#N)cc2)[C@H](O)[C@H](O)C1 (stereo partly drawn),1,6
NC(=O)c1cccc(C(=O)NN(c2ccccc2)c2ccccc2)c1,11,4
O=C(C=Cc1ccsc1)N1CCN(S(=O)(=O)c2ccc(F)c(Cl)c2)CC1,-1,-2
O=[N+]([O-])C1([N+](=O)[O-])CCCc2nn(-c3ccccc3)nc21,9,7
O=C(Nc1ccccc1)C(C1CCCC1)N1CCN(C(=O)c2ccc([N+](=O)[O-])cc2)CC1 (stereo not drawn),11,17
COc1cccc(COC(CN2CCN(C(=O)c3ccccc3OC)CC2)c2ccc(Cl)cc2)c1 (stereo not drawn),-11,-1
O=C(c1ccc(C(F)(F)F)cc1)C1CCCN(C(=O)CCc2ccco2)C1 (stereo not drawn),8,7
CCC(C)c1ccccc1NC(=O)c1ccc(=O)n(C)n1 (stereo not drawn),9,3
COc1ccc(CCN2C(=O)N(C)C(=O)C23CCN(Cc2nc4ccccc4s2)CC3)cc1,20,4
COc1ccc2cc(C(=O)Nc3cccc(C(F)(F)F)c3)c(=O)oc2c1,7,6
O=C(Cc1ccccc1)N(Cc1cccnc1)c1nc2c(F)cc(F)cc2s1,-5,3
Cc1ncc2c(n1)C(CC(C)C)N(CCOc1ccccc1)C2=O (stereo not drawn),17,9
CCc1noc(C)c1C(=O)N1CCCSC1=Nc1ccccc1Cl,2,1

# Random excerpt: 2 records from the list.
SMILES,NPYLR7 agonist,NPYLR7 agonist max-min
CCOCCN1N=C(c2ccc(F)cc2)Cn2c1nc1c2c(=O)n(C)c(=O)n1C,2,4
CCOC(=O)[C@@H]1C[C@@H]1CN1CCn2nc(-c3nc4ccccc4n3C)cc2C1,0&-1,-4&-4

# Additional structures.
SMILES,NPYLR7 agonist,NPYLR7 agonist max-min
Cc1ccc(Nc2cc(C)nc(N3CCN(C(=O)c4cccc5ccccc45)CC3)n2)cc1,18,8
Cc1ccccc1-n1ncc(C(C)NC(=O)c2cn(C)c3ccccc3c2=O)c1C (stereo not drawn),1,-2
Cc1cc(C)nc(SCc2n[nH]c(=S)n2C)n1,-1,-12
CCCOC(=O)C1C(C)=NC2=C(C(=O)CC(C)(C)C2)C1c1ccc(C)o1 (stereo not drawn),6,2
Cc1ccc(C)c(-c2csc(NC(=O)c3cc(C)on3)n2)c1,5,4
Cc1noc(C)c1CN1CCN2C=C(C(=O)Nc3ccc(-n4cccc4)cc3)OC2=NC1=O,-3,-5
CC1(C(=O)Nc2ccccc2)CCN1C(=O)c1cccc(F)c1 (stereo not drawn),3,2
CCOC(=O)c1scc(-c2ccc(C)cc2)c1S(=O)(=O)N1CCc2ccccc2C1,6,5
O=C(CN1CN(c2ccccc2)C2(CCN(C(=O)c3ccc(Cl)cc3Cl)CC2)C1=O)NCC1CCCO1 (stereo not drawn),-9,-1
COc1cc2c(cc1-c1c(-c3ccccc3)ncn1Cc1ccon1)CCC2,-1,-1
O=C1N(Cc2ccccn2)C(=O)C2(CCN(Cc3ccc(F)cc3F)CC2)N1CCc1ccccc1,9,1
CC(C)CN(C)CC1(O)CCCN(CC2CCCCC2)C1=O (stereo not drawn),8,5
Cc1ccc(-c2nnc(NC(=O)CCNC(=O)C(C)(C)C)s2)cc1,8,17
CCc1noc(C(C)Sc2nc(Cc3ccccc3)c(C)[nH]2)n1 (stereo not drawn),6,2
c1cncc(-c2noc(-c3ccco3)n2)c1,-1,-5
CCn1nnc2c(Nc3cccc(C)c3)ncnc21,8,16
COCCOc1nc(-c2ccc(OC)cc2)n(-c2ccc(NS(=O)(=O)c3ccc(C)cc3)cc2)n1,25,26
CCc1nc2ccc(C(=O)Nc3ccc(OC)c(OC)c3)cn2c1N(C)C(=O)Nc1ccccc1OC,-4,-8
CCC[C@@H]1C[C@@H](C(=O)N[C@@H]([C@H]2O[C@H](SC)[C@H](O)[C@@H](O)[C@@H]2O)[C@@H](C)O)N(C)C1,-7&2,-12&-4
C=C(C)CNC(=S)NN=CC1=CCC2CC1C2(C)C (stereo not drawn),25,15
COc1ccc2oc(=O)c(S(=O)(=O)c3ccc(OC)c(OC)c3)cc2c1,6,5
Cc1nn2c(NC(C)C)cc(C(C)(C)C)nc2c1-c1ccccc1,-3,25
O=C(COc1ccc(Cl)cc1Cl)NCCn1nc(-c2cccs2)ccc1=O,0,-1
O=C(N=Nc1c(O)n(CN2CCOCC2)c2ccccc12)c1ccccc1,3,2
Cc1cccc(C)c1Cn1c(C)c(C(=O)NCC(C)C)sc1=O,11,8
CN(Cc1csc(-c2ccccc2)n1)C(=O)c1cccc(-n2cnnc2)c1,-1,-1
O=C(NCc1c(F)c(F)c(F)c(F)c1F)c1cc([N+](=O)[O-])cc([N+](=O)[O-])c1,-2,-8
FC(F)(F)c1ccccc1CN1CCCn2cccc2C1c1ccc(Cl)c(Cl)c1 (stereo not drawn),12,17
Cc1cc(N2C(=O)c3oc4cc(C)c(C)cc4c(=O)c3C2c2cccnc2)no1 (stereo not drawn),1,2
CC1(C)CC2C1CCC1(C)OC1CCC2(C)O (stereo not drawn),-9,-12
CC(NC(=O)C1CCC1)C(=O)N(C)CCCOc1ccc(F)cc1 (stereo not drawn),4,3
CS(=O)(=O)N1CCCc2cc(C(=O)NC3CCCCCC3)ccc21,-1,1

# Taken from the listing (6 entries):
SMILES,NPYLR7 agonist,NPYLR7 agonist max-min
CCOCCCN(CC(=O)N(CCc1ccc(OC)c(OC)c1)Cc1ccc(C)s1)C(=O)Nc1ccccc1C(F)(F)F,-1,4
O=C(c1cccnc1-c1cccc(CN2CCOCC2)c1)N1CCCC1,0,2
Clc1ccc2nnc(-c3ccc(Br)cc3)n2n1,2,-1
O=C(N[C@@H]1CCCCC1NC(=O)C1CCCN(C(=O)c2ccc(C(F)(F)F)cc2)C1)c1ccc(F)cc1 (stereo partly drawn),-2,-2
CCOCCN1N=C(c2ccc(F)cc2)Cn2c1nc1c2c(=O)n(C)c(=O)n1C,2,4
CC1(C)CN(C(=O)CCc2ccccc2)CC(=O)N(CC(O)C(F)(F)F)C1 (stereo not drawn),9,24
